PrP UTR inh: inhibition of PrP 5' UTR reporter expression. cell-based PrP 5' UTR mRNA reporter, plate reader. inhibition, % (concentration not given with the values). 0.35% of 340,000 active;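 active means every replicate at 50% or more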;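 further: 0 = median of the neutral control wells; tested in H4 reporter cells; numbers are from one replicate; inactives centre near -14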
BJeLR viability: BJeLR cell viability loss; BJeLR (HRASV12) viability, CellTiter-Glo ATP luminescence, 48 h; reference of the scale not given here; inhibition, % (test concentration not listed); 0.17% of 300,000 active;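 active means replicate mean above 50%; inconclusive means above 50% but judged a plate artefact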;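 further: 50 nL library stock added to about 25 µL; numbers are from one replicate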
Mtb hypoxia rep: Mtb hypoxia fluorescent reporter inhibition; M. tuberculosis hypoxia-regulated fluorescent reporter, fluorescence; fluorescence inhibition, % (test concentration not listed); 0.1% of 300,000 active; AID 1159583;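 active means 35 to 45% if threefold the growth effect, above 45% if 1.5-fold the growth effect; inactive means the rest, general growth blockers included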;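 further: wells of about 50 µL received 100 nL stock; 0% = vehicle wells and 100% = reference inhibitor wells; whole bacteria with a GFP reporter of the hypoxia response; strong numbers were not always called active; many hits fall short of the cut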
Bead autofluor: counter-screen for toxin protease inhibitors: compound fluorescence. fluorescence intensity (concentration not given with the values). 3.1% of 360,000 active. compound autofluorescence counterscreen, microsphere flow cytometry; stronger effect = higher value;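 active means at least 3 SD above the mean of all compounds, about 16000 in these data; inconclusive means too few beads counted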;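 further: 100 nL of 1 mM stock went into each well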
ugtP null kill: compounds lethal to S. aureus RN4220 ugtP deletion mutant; OD600 growth, 16 h; some inactives read as strong as hits; growth inhibition, % (concentration not given with the values); 0.54% of 330,000 active;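 active means z-score under -3 and OD600 up to 0.15 on both plates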;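 further: plate controls were untreated wells for no effect and antibiotic for full effect; wells of about 80 µL received 100 nL stock; the first replicate is given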
RN4220 kill: S. aureus RN4220 growth inhibition; OD600, 16 h; inhibition, % (concentration not given with the values); 0.33% of 330,000 active; AID 1259311;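 active means z-score of -3 or lower and OD600 up to 0.18 on both plates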;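 further: plate controls were untreated cells for no effect and reference antibiotic for full effect; stock transfer was 100 nL into about 80 µL; one replicate is shown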
Mtb hypoxia rep growth: recorded beside Mtb hypoxia rep, whose call it bears; growth inhibition, %; measured here: M. tuberculosis growth (absorbance);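 0% = vehicle and 100% = reference antibiotic; read after six days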
* = called active by the depositor; ? = inconclusive; . = no result given.

Second line of a record: PrP UTR inh	BJeLR viability	Mtb hypoxia rep	Mtb hypoxia rep growth	Bead autofluor	ugtP null kill	RN4220 kill
O=S(=O)(NCC1CCCO1)c1ccc(Cl)cc1 (stereo not drawn)
 : -10	-1	8	1	4083	3	0.1
Cc1ccsc1C(=O)OCC(=O)NC1CC1
 : 9	.	6	15	3689	1	1.4
O=C(NCc1ccccc1)c1ccc2c(c1)C(=O)N(Cc1cccnc1)C2=O
 : -27	2	6	-8	6104	3	2.6
CCNC(=O)c1nc[nH]c1C(=O)NCC
 : -10	-3	.	.	4226	4	4.3
CC(Sc1nnnn1C)C(=O)Nc1ccc2c(c1)OCCO2 (stereo not drawn)
 : -86	4	10	3	5560	11	5.5
COc1ccc(/C=C(/NC(=O)c2ccccc2)C(=O)NN=Cc2cccs2)cc1OC
 : .	.	14	3	.	7	-0.7
Cc1ccc(/C=N/n2nnnc2N)cc1
 : -34	7	.	.	6127	.	.
CCC12CN3CCN(CC(C3)C1=NNC(=O)c1ccc(F)cc1)C2
 : .	.	-4	-1	.	3	6.5
COc1ccccc1OC(C)C(=O)N(Cc1ccco1)C1CCS(=O)(=O)C1 (stereo not drawn)
 : 10	1	2	5	4406	1	3.4
CC(=O)N/C(=C\c1ccccc1)C(=O)OCc1ccc(C)cc1
 : -4	7	7	11	5669	4	1.4
CCOc1ccccc1C(=O)Nc1ccsc1C(=O)OC
 : -44	32	12	10	8924	-27	-2.8
CC(C)(O)C#Cc1ccc(C(=O)N2CCN(c3ccc([N+](=O)[O-])cc3)CC2)cc1
 : -6	8	-7	-7	2221	2	2.7
CC(C)NC(=S)N1CCCN(c2ncccc2[N+](=O)[O-])CC1
 : -15	-4	-4	1	3715	5	3.3
c1coc(CNc2nc3ccccc3s2)c1
 : -44	-6	12	23	3748	2	4.4
CCOc1ccc2nc(Cl)c(CN(C(=O)c3cnccn3)C3CCCC3)cc2c1
 : -6	-5	6	5	2613	6	4.3
N#Cc1ccc(OCc2nnc3n2CCCCC3)cc1
 : -18	4	5	-2	3320	3	4.3
CON=C/C=C1/N(C)c2ccccc2C1(C)C
 : .	.	1	-4	.	5	12
COc1ccc2sc(NC(C)=O)nc2c1
 : -17	14	2	-2	15704	3	1.4
S=C(NCC1(c2ccccc2)CCCC1)Nc1ccccc1
 : 0	-2	4	5	3546	0	3.5
C=CCn1c(C)cc(C(=O)CSc2nnc(NC(C)C)s2)c1C
 : -7	8	-2	1	?	-7	-18
CCCc1ccc(C(=O)COC(=O)CN2C(=O)NC3(CCCCC3C)C2=O)cc1 (stereo not drawn)
 : 4	.	11	2	.	13	9.9
O=C1/C(=C\c2ccc([N+](=O)[O-])cc2)N2CCC1CC2
 : -7	-3	3	8	2266	0	2.2
O=C(CSc1cccc(C(F)(F)F)c1)NC(=O)NCc1ccco1
 : -23	-7	6	4	12838	5	7.7
O=C(Nc1ccc(NC(=O)c2ccccc2Cl)nc1)c1ccncc1
 : -19	4	2	11	2595	12	-2.4
COCCOc1nc2ccccc2nc1C
 : -14	18	.	.	3216	-1	3.1
CCN(c1ccccc1)S(=O)(=O)c1ccc(C(=O)Nc2ccncc2)cc1
 : 0	-2	2	2	4329	0	6.2
Cc1cccc[n+]1CC(=O)N1c2ccccc2Sc2ccccc21
 : -23	-2	2	3	2521	-1	-1.0
Cc1cc(C(=O)CN2C(=O)C(=O)N(C3CCCC3)C2=O)c(C)n1CCc1ccccc1
 : -26	.	-1	0	5442	0	4.8
CCN(CC)S(=O)(=O)c1ccc(N2CCCC2)c(NC(=O)CC(C)(C)C)c1
 : .	-1	9	2	3988	-2	5.7
O=C(O)c1ccc(CNC(=O)c2ccc(Br)o2)cc1
 : -26	4	12	11	11889	1	0.5

Compounds listed so far with a nitro group on carbon, in the order listed:
Second line of a record: PrP UTR inh	BJeLR viability	Mtb hypoxia rep	Mtb hypoxia rep growth	Bead autofluor	ugtP null kill	RN4220 kill
CC(C)(O)C#Cc1ccc(C(=O)N2CCN(c3ccc([N+](=O)[O-])cc3)CC2)cc1
 : -6	8	-7	-7	2221	2	2.7
CC(C)NC(=S)N1CCCN(c2ncccc2[N+](=O)[O-])CC1
 : -15	-4	-4	1	3715	5	3.3
O=C1/C(=C\c2ccc([N+](=O)[O-])cc2)N2CCC1CC2
 : -7	-3	3	8	2266	0	2.2

Continuation:
Second line of a record: PrP UTR inh	BJeLR viability	Mtb hypoxia rep	Mtb hypoxia rep growth	Bead autofluor	ugtP null kill	RN4220 kill
COC(=O)c1cc(S(=O)(=O)NCC2CCN(CCc3ccc(OC)cc3)CC2)c[nH]1
 : -26	8	-4	-4	5952	3	-0.8
COc1ccc(C(=O)Cn2c(Br)nc3c2c(=O)n(C)c(=O)n3C)cc1
 : -12	1	6	6	7970	3	-1.0
CCC(Oc1ccccc1F)C(=O)Nc1ccc2c(c1)n(C)c(=O)n2C (stereo not drawn)
 : -18	7	1	-9	4019	3	2.0
CN(C1CCCCC1)S(=O)(=O)c1cccc(C(=O)OCC(=O)NC2CCCc3ccccc32)c1 (stereo not drawn)
 : 5	-1	-8	-2	2551	-10	-8.4
COc1cc2c(=O)n(CCCN3CCOCC3)c(=S)[nH]c2c(OC)c1OC
 : -36	-10	0	9	9074	2	3.4
COc1cc2c(cc1OC)C(C(=O)Nc1ccc3c(c1)OCCO3)C(c1cccnc1)N(C)C2=O (stereo not drawn)
 : -29	3	-4	5	3865	1	-0.8
O=C(Nc1ccc(Cl)cn1)C1C(c2ccccc2)C1(Cl)Cl (stereo not drawn)
 : -39	-6	2	-13	2662	-24	-21
COc1cc(/C=N/NC(=O)CSc2ccccn2)ccc1OC(C)C
 : -46	-7	.	.	3311	.	.
COc1ccc(NC(=O)CN(C)C(=O)/C=C/c2ccc(S(=O)(=O)N3CCCCCC3)cc2)cc1
 : -1	-7	.	.	5587	.	.
O=C(N/N=C/c1ccc(OC(=O)c2cccs2)cc1)c1ccccn1
 : -42	1	.	.	6287	.	.
COC(=O)CCCNC(=O)c1ccc(OC2CCN(CCc3ccccc3)CC2)cc1
 : -29	2	-1	5	2361	0	6.5
COc1ccc(CC(=O)Nc2c3c(nn2-c2cccc(C)c2C)CS(=O)C3)cc1 (stereo not drawn)
 : 3	-1	8	12	2976	2	6.2
CC(=O)N1N=C2C3CCN(CC3)C2C1c1ccc(F)cc1 (stereo not drawn)
 : -5	12	2	2	4659	-3	0.9
Cc1onc(-c2ccccc2Cl)c1C(=O)N1CCN(c2nc3ccccc3s2)CC1
 : -3	2	10	5	3602	3	2.0
Cc1cc(C)cc(-n2c(C)cc(C=C(C#N)C#N)c2C)c1
 : -36	2	11	4	6591	12	-0.7
CCOC(=O)N1CCN(Cc2cc(=O)oc3ccc(Cl)cc23)CC1
 : -5	3	4	18	5631	0	2.9
Cc1ccccc1CCNCc1cc2cccc(C)c2[nH]c1=O
 : 4	-2	2	3	3265	12	3.6
Cc1ccc(NC(=O)N2CCCCCC2)c(C)c1
 : -42	3	6	15	5456	-7	4.1
O=C(O)CNC(=O)C1(N2C(=O)c3ccccc3C2=O)CCCC1
 : -12	.	6	10	3929	1	2.8
O=C1OCC(Cn2c3ccccc3c3ccccc32)O1 (stereo not drawn)
 : -24	-5	4	5	23400*	0	2.0
CN(/C(=N/S(=O)(=O)c1cccs1)c1ccccc1)c1ccccc1
 : -4	-6	.	.	2537	.	.
CCOc1cc(C=Cc2cc(C(F)(F)F)[nH]c(=O)n2)ccc1O
 : .	.	15	11	.	0	24
COc1ccccc1CNC(=O)CCCC(=O)n1nc(C)c2ccccc21
 : 0	-20	1	-4	5194	7	3.4
O=C(NCCOc1ccc(Cl)cc1)C1CCCCC1
 : -5	5	-1	6	4304	2	-1.9
CCN(CC)C(=O)C1c2ccccc2Oc2ccccc21
 : -1	-3	.	.	3621	.	.
CCOC(=O)C(C(=O)NCCCN1CCOCC1)C1CCCCC1 (stereo not drawn)
 : -23	-5	.	.	4097	6	-1.1
Cc1ccc(S(=O)(=O)NN=Cc2cccc3c2OCCO3)cc1
 : .	.	2	5	.	11	9.1
O=c1[nH][nH]c(C(F)(F)F)c1C=NCc1ccc(Cl)cc1
 : -20	-1	.	.	4014	2	1.9
O=C1NC(=O)/C(=C/c2ccc(-c3cc(C(=O)O)ccc3Cl)o2)S1
 : -23	2	8	-5	3702	4	6.0
CCOn1c(=O)c[n+]([O-])c2ccccc21
 : -18	-10	3	-1	3459	4	1.7
N#CCC(=O)Nc1ccc(C(=O)OCC(=O)N(C2CCCCC2)C2CCCCC2)cc1
 : -8	4	2	8	3840	-9	-3.3
O=C(NCCCN1CCCC1)c1ccc2c(c1)N(Cc1ccc(F)cc1)C(=O)c1ccccc1S2=O (stereo not drawn)
 : -10	9	-13	-7	6488	-6	-6.8
CCOC(=O)c1cnc(N2CCN(C(=O)OCC)CC2)[nH]c1=O
 : -28	0	2	-7	4806	0	1.9
Cc1ccccc1N(CC(=O)NN=Cc1ccc(Cl)cc1)C(=O)c1ccccc1
 : .	.	9	11	.	1	-1.7
Cc1cc(C)n(-c2ccc(C(=O)Oc3ccc4c(c3)OCO4)cc2)n1
 : -8	-3	1	2	4486	-4	1.3
C=CCNC(=O)C12CC3(C)CC(C)(CC(C)(C3)C1)C2
 : -14	11	.	.	4617	6	0.5
Cc1ccc(S(=O)(=O)N2[C@@H](c3ccc(Cl)c(Cl)c3)C(C(=O)O)=C[C@H]2CC2CCCC2)cc1
 : -34	.	-2	7	3836	-15	18
COc1cc(OC)c(OC)cc1C=NNc1ncnc2c1[nH]c1ccccc12
 : .	.	-3	-1	.	-9	8.4
Oc1ccc(Cl)cc1C1=NNC(c2ccc(Cl)cc2)C1 (stereo not drawn)
 : -37	-7	.	.	2434	.	.
Cc1ccc(S(=O)(=O)NC(=NC2CCCCC2)c2ccccc2)cc1
 : -4	-4	2	-5	3395	-7	0.8
Cc1ccc(S(=O)(=O)N2C(c3ccc(Cl)cc3)CC=C(C(=O)O)C2c2ccc(F)cc2)cc1 (stereo not drawn)
 : .	.	11	9	.	93*	19
Fc1ccc2c(c1)C(c1ccncc1)=NNC(c1ccc(Cl)cc1)=N2
 : -8	10	-9	-1	9391	-8	1.1
COc1ccc(CN(C)C(=O)COC(=O)c2c(C)nn(-c3ccc(F)cc3)c2Cl)cc1
 : -6	.	0	3	8498	7	1.1
C/C(CC(=O)Nc1ccc(Cl)cc1Cl)=N\NC(=O)C(=O)N1CCCC1
 : -19	-3	.	.	4086	.	.
CC[C@]12c3[nH]c4cc(CCC(=O)N(C)C)ccc4c3CCN1C(=O)[C@@H](CC(=O)NCc1ccc(OC)c(OC)c1)C[C@@H]2C(=O)N1CCN(C(=O)c2ccco2)CC1
 : -1	.	4	5	3055	1	0.9
COC(=O)c1sc(N2C(=O)C(O)=C(C(=O)c3ccc(C)o3)C2c2ccc([N+](=O)[O-])cc2)nc1C (stereo not drawn)
 : 5	-5	7	21	5580	5	5.1
O=C(NNC(=O)C1CC1)c1cc2cc3ccccc3nc2s1
 : -30	11	6	5	3877	-22	-2.5

From PubChem BioAssay
